# Cneo AK release = Cryptococcus neoformans lysis via adenylate kinase release | lysis activity, % at 15 µM | C. neoformans lysis, adenylate kinase release luminescence, 4 h; normalised: neutral wells 0, clomiphene wells 100 | 360,000 tested, 0.2% active;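 active = mean lysis activity across replicates of at least 80%, whatever share of replicates individually reach that level; inactive = mean lysis activity below 80%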
#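 Test system: log-phase Cryptococcus neoformans yeast cells. Input: 5 × 10^6 yeast cells/mL. Medium: fresh YPD growth medium. Doses: single dose. Incubation: static 4 h at 37 °C with compound, 1 h detection. Measured by: luminescent adenylate kinase detection reagent. Read-out: signal increase indicating cell lysis. Benchmarks: Clomiphene.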
# miR-122 sensor = blocks miR-122 activity in Huh7 sensor cells. Huh7 miR-122 Renilla luciferase sensor, 48 h; neutral wells = 0, positive control = 100. activation (reporter increase), % at 12.5 µM. 340,000 tested, 0.3% active. AID 602342;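 active = mean replicate activation score at least 90 and every replicate individually at or above 90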;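 also: higher luciferase means less miR-122 activity so hits act as miR-122 inhibitors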
# CFTR F508del cor = CFTR F508del correction in bronchial cells; activity (quench increase), % at 7.58 µM; 350,000 tested, 0.36% active; AID 720511; CFBE cells, YFP halide quenching; stimulated with forskolin plus potentiator P3; % fluorescence drop versus neutral controls;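 active = mean added fluorescence quench of at least 8% versus neutral control, with both replicates also reaching 8%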;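 also: cells transiently co-express mutant CFTR-F508del with the halide-sensitive YFP; corrector assay measuring rescue of mutant channel to the surface after 24 h compound exposure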
# GSIS activator = primary screen for activators of insulin secretion dependent on glucose, INS-1E cells, GLuc reporter luminescence | INS-1E GLuc reporter insulin secretion, 2-3 h | activation, % at 16.6 µM | 370,000 tested, 0.61% active;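 active = lowest replicate activation of at least 40%, so every replicate reaches that level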;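 also: 0% = median of neutral control wells and 100% = median of IBMX positive control wells; some compounds called inactive have numbers as strong as hits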
# PGC1a acetyl inh = modulators of PGC1a acetylation; 350,000 tested, 0.17% active; U2OS PGC1a acetylation, AlphaScreen anti-acetyl-lysine; with virally co-expressed GCN5 acetyltransferase; inhibition, % at 15.6 µM; AID 651687;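 active = every replicate shows inhibition of at least 40%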;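 also: 0% = neutral control wells and 100% = positive control wells; some results beyond the cut were filed as inactive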
# * hit, by the source's call; . = not tested or not shown. Some of the compounds tested, so the mix of outcomes need not match the whole.
1. Cc1cccc(-c2nnc3n2N=C(c2ccccc2)CS3)c1
2. NS(=O)(=O)c1ccc(NC(=O)Nc2ccccc2)cc1
3. C[C@H](C(=O)O)c1cccc(C(=O)c2ccccc2)c1
4. Cc1nn(CC(=O)O)c(C)c1Cl
5. Cc1cccc(N2CCN(C(=O)c3cc4c(=O)n(C)c5ccccc5c4n3C)CC2C)c1 (stereo not drawn)
6. Cc1nc(-c2ccccc2)c(-c2ccccc2)[nH]1
7. O=C(NCCN1CCC(n2c(=O)[nH]c3ccccc32)CC1)c1ccc2ccccc2c1
Screen / compound no. | 1 | 2 | 3 | 4 | 5 | 6 | 7
Cneo AK release | -1 | . | 0 | 3 | 0 | 1 | .
miR-122 sensor | -13 | . | 4 | 0 | 2 | . | .
CFTR F508del cor | . | 1.7 | -4.3 | . | . | . | -0.8
GSIS activator | . | 14 | . | 23 | . | . | -30
PGC1a acetyl inh | . | . | . | -11 | . | . | .

# Whole records, quoted from the list:
# `Cc1nn(CC(=O)O)c(C)c1Cl` is listed with Cneo AK release = 3; miR-122 sensor = 0; CFTR F508del cor = .; GSIS activator = 23; PGC1a acetyl inh = -11
# `Cc1cccc(N2CCN(C(=O)c3cc4c(=O)n(C)c5ccccc5c4n3C)CC2C)c1` (stereo not drawn) is listed with Cneo AK release = 0; miR-122 sensor = 2; CFTR F508del cor = .; GSIS activator = .; PGC1a acetyl inh = .

# 3 compounds already listed, arranged by the value under GSIS activator, largest number first:
No. | mol | miR-122 sensor | CFTR F508del cor | GSIS activator | PGC1a acetyl inh
4 | Cc1nn(CC(=O)O)c(C)c1Cl | 0 | . | 23 | -11
2 | NS(=O)(=O)c1ccc(NC(=O)Nc2ccccc2)cc1 | . | 1.7 | 14 | .
7 | O=C(NCCN1CCC(n2c(=O)[nH]c3ccccc32)CC1)c1ccc2ccccc2c1 | . | -0.8 | -30 | .

# High-throughput results deposited in PubChem BioAssay by Broad Institute.
